# High-throughput results (PubChem BioAssay)
# Cruzain inh Det: cruzain (T. cruzi) inhibition with detergent. P25779. purified cruzain, Z-FR-AMC fluorescence, 0.01% Triton. Potency, µM, for the others: max response, negative = inhibition, usual class: inhibitors. hit rate 0.43% among 200,000; active = well fitted curve in the direction sought with a large enough effect; inconclusive = small, poorly fitted or top-dose-only effect, or another doubt; inactive = no such curve, though single readings can be large; an effect the other way counts as inactive or inconclusive;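 also: plate controls were neutral wells for no effect and buffer without enzyme for full effect; nearly all actives have a fitted effect of over 40% in size; top concentration of the series not given in the record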
# Target sequence (P25779 123-467 limits assumed): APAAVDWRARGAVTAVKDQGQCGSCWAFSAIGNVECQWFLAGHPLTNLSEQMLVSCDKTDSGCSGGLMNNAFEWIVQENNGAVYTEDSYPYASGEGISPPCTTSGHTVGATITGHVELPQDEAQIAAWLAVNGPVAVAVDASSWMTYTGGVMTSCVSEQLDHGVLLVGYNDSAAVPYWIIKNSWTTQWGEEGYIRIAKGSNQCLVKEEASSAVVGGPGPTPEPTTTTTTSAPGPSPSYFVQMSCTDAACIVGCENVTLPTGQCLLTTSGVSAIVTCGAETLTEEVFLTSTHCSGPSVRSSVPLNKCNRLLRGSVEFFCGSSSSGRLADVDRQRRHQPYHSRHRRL
#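 Detergent-containing arm of a paired screen for aggregation-based inhibition: 0.01% Triton X-100 present. Cruzain at 1.5 nM cleaved 2 uM Z-FR-AMC at pH 5.5 with 5 mM DTT; AMC fluorescence gain over 60 s measured activity.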
# RE007 growth inh: less growth of the S. pombe RE007 Vpr strain; S. pombe RE007 Vpr strain, BacTiter-Glo ATP luminescence, 24 h; control for the full effect not named in the record; Potency, µM (titrated, usually from 92.2 µM), for inactives: at the highest dose activity change, negative = less growth; hit rate 0.21% among 360,000; AID 651644; active = well fitted falling curve with a large enough effect; inconclusive = small, poorly fitted or top-dose-only effect; inactive = no such curve, though single readings can be large or run the other way;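 also: % is scaled to controls: 0 for no effect and ±100 for the full control effect; nearly all actives have a fitted effect of over 50% in size; the assay follows cell death caused by Vpr and the record does not say whether a fall means rescue or toxicity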
#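 Fission yeast RE007 carrying one integrated HIV-1 vpr copy, seeded at OD 0.01 in PMG+AL medium with 23 nL pinned compound. Grown 24 h at 30 degrees; viability read by BacTiter-Glo luminescence after 5 min.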
# MARV entry inh: blocks Marburg virus binding to or entry into cells. Marburg virus pseudotyped entry inhibition, cell reporter; control for the full effect not named in the record; about a third of the inactives were read at about 46 µM. Potency, µM (highest dose often 37.8 µM), without a hit: top-dose activity change, negative = inhibition, actives largely listed as inhibitors. hit rate 1.8% among 300,000; active = well fitted inhibition curve with a large enough effect; inconclusive = small, poorly fitted or top-dose-only effect, or effect the other way; inactive = flat fitted curve, though single readings scatter; tested in HEK293 cells; about a fifth of its hits are not listed in these tables; also: % is scaled to controls: 0 for no effect and ±100 for the full control effect; luciferase read-out
# Cruzain noTriton: cruzain (T. cruzi) inhibition without detergent | P25779 | purified cruzain, Z-FR-AMC fluorescence, no detergent | Potency, µM, inactives show max response, negative = inhibition, actives largely listed as inhibitors | hit rate 2.3% among 200,000 | AID 1476; active = well fitted curve in the direction sought with a large enough effect; inconclusive = small, poorly fitted or top-dose-only effect, or another doubt; inactive = no such curve, though single readings can be large; an effect the other way counts as inactive or inconclusive;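 also: plate controls were enzyme without inhibitor for no effect and buffer without enzyme for full effect; nearly all actives have a fitted effect of over 40% in size; top concentration of the series not given in the record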
#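 Detergent-free condition (0.00005% Triton X-100) in acetate buffer pH 5.5 with DTT. 1.5 nM enzyme and compound were pre-mixed 15 min, then 2 uM Z-FR-AMC substrate added; reaction progress from fluorescence change between first and third reads (60 s).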
# StopGo reporter: lowers the luciferase signal of an FMDV 2A StopGo reporter | Potency, µM (series often up to 57.9 µM), for the others: at the top dose signal change, negative = less light | human cells with a luciferase reporter of 2A StopGo recoding; control for the full effect not named in the record | hit rate 1.2% among 410,000; active = well fitted falling curve with a large enough effect; inconclusive = small, poorly fitted or top-dose-only effect; inactive = no such curve, though single readings can be large or run the other way; tested in HEK293T cells; also: % is scaled to controls: 0 for no effect and ±100 for the full control effect; nearly all actives have a fitted effect of over 45% in size; luciferase light after 4 h
# Lassa entry inh: blocks Lassa virus binding to or entry into cells; Potency, µM (highest dose often 37.9 µM), for inactives: at the top dose activity change, negative = inhibition, hits mostly inhibitors; hit rate 1.2% among 300,000; Lassa virus pseudotype entry inhibition, cell reporter; control for the full effect not named in the record; active means well fitted inhibition curve with a large enough effect; inconclusive means small, poorly fitted or top-dose-only effect, or effect the other way; inactive means flat fitted curve, though single readings scatter; tested in HEK293 cells; also: % is scaled to controls: 0 for no effect and ±100 for the full control effect; nearly all actives have a fitted effect of over 50% in size; luciferase read-out
# SARS PLpro yeast: SARS-CoV PLP inhibition in yeast | S. cerevisiae expressing SARS-CoV PLpro, growth rescue; control for the full effect not named in the record | Potency, µM (series often up to 32.9 µM), without a hit: top-dose activity, positive = growth rescue | hit rate 0.19% among 330,000 | AID 485353; also: 0% is about no effect; nearly all actives have a fitted effect of over 55% in size; growth read by luminescence after 48 h
# NS1 function inh: influenza NS1 inhibition | S. cerevisiae slowed by influenza A NS1, growth recovery by OD600 | hit rate 0.4% among 270,000 | Potency, µM (series often up to 46.1 µM), for inactives: top-dose activity, positive = more growth; also: actives are rising curves; nearly all actives have a fitted effect of over 50% in size
#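 Compounds were scored for reversing the slow growth caused by influenza A NS1 in S. cerevisiae, measured by optical density at 600 nm. Assay medium contained 2% galactose at pH 6.0; NS1-free yeast of the same strain were the positive control.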
# * hit, by the source's call; ? = inconclusive; / = no result given; & = joins results of further samples; [ ] = remark or other dose. Unless noted, calls follow the shape of the dose curve; as a rule, active means well fitted rising curve with a large enough effect; inconclusive means small, poorly fitted or top-dose-only effect; inactive means no such curve, though single readings can be large or run the other way. Potency is read from the fitted curve at half-maximal effect. Rows were taken by chance; 4.7% or so of the library scored in one or more.
SMILES,Cruzain inh Det,RE007 growth inh,MARV entry inh,Cruzain noTriton,StopGo reporter,Lassa entry inh,SARS PLpro yeast,NS1 function inh
OC1/C(=C/c2ccc(Cl)cc2Cl)N2CCC1CC2 (stereo unspecified),/,?,17%[46.1 µM],/,13%,/,2%,/
COc1ccc(NCc2nnc(SCC(=O)Nc3ccc(OC)cc3)n2C)cc1,/,-9%,8%[46.1 µM],/,-3%,-4%[46.1 µM],-5%,5%
CCOC(=O)C(C(=O)OCC)C1N=C(N)N=C2Oc3ccccc3N21 (stereo unspecified),-4.5%,-2%,0%,4%,/,5%,2%,-10%
C/C(=N\NC(=O)C12CCC(C)(C(=O)O1)C2(C)C)c1ccccc1O (stereo unspecified),/,4%,/,/,4%,/,2%,-3%
COc1ccc(NC(=S)N(CCCN2CCOCC2)Cc2cn(C)c3ccccc23)cc1,0.6%,5%,?,-7%,5%,?,-11%,15%
Cc1cc(C)cc(NC(=O)Cn2c(=O)c3ccccc3n3nncc23)c1,0.1%,/,13%[46.1 µM],5%,4%,5%[46.1 µM],/,/
COc1cc(/C=C2/CCC/C(=C\c3cc(O)c(OC)c(Cl)c3)C2=O)cc(Cl)c1O,-0.1%,0%,?,-22%,?,?,1%,-4%
O=c1[nH]c(=O)n(CCc2ccc(F)cc2)c(O)c1C=NCCCN1CCOCC1,-7.9%,1%,19%,-16%,-16%,9%,-4%,-31%
Cc1cc(C(=O)NCC2CCCO2)sc1C (stereo unspecified),/,3%,?,/,41%[activator],7%[46.1 µM],2%,/
Clc1ccc(-c2nnc(N3CCOCC3)o2)cc1,/,7%,?,/,47%[activator],25%[46.1 µM],-1%,2%
CC(=O)Nc1ccc(S(=O)(=O)NCCSCc2ccccc2Cl)cc1,-3.3%,-3%,?,-3%,-27%,?,17%,-2%
CCOc1ccccc1C(=O)NC(C(=O)Nc1ccccc1N1CCOCC1)C(C)C (stereo unspecified),5.2%,0%,?,?,-5%,1%,6%,-2%
CCOC(=O)C1CCN(S(=O)(=O)c2cc(Br)cc3c2N(C(=O)CC)CC3)CC1,-0.3%,/,9%[46.1 µM],15%,0%,1%[46.1 µM],/,/
O=[N+]([O-])c1cc([N+](=O)[O-])c(Oc2ccc(Cl)c3cccnc23)cc1NN1CCCCC1,/,-2%,/,/,-24%,/,-4%,-14%
Cc1cc2oc(=O)cc(C)c2c2occ(-c3ccc(Cl)cc3)c12,-1.7%,/,1%[46.1 µM],-10%,-10%,10%[46.1 µM],/,/
CCOC(=O)COc1cccc2c(=O)n(CC(=O)N3CCN(C(=O)OCC)CC3)ccc12,-4.3%,11%,/,-4%,0%,/,11%,?
O=c1c(C/C=C/c2ccccc2)c(O)nc2n1CCCS2,0.6%,2%,4%,-9%,14%,-22%,-7%,-63%
COc1ccc(S(=O)(=O)N2CCCCCC2)cc1N(C)S(=O)(=O)c1ccccc1,-7.0%,0%,-25%,-1%,-9%,?,9%,4%
CC(NC(=S)Nc1ccc(S(=O)(=O)N2CCOCC2)cc1)C1CC2CCC1C2 (stereo unspecified),-5.7%,26%,?,1%,0%,?,-4%,-4%
Cc1cc(=O)oc2c1ccc1ccccc12,/,16%,/,/,5%,/,-3%,-5%
Cc1ccc(-n2ncc(C(=O)N(C)Cc3ccccc3)c2-n2cccc2)cc1,-8.9%,/,/,20%,-24%,?,/,/
Cc1ccc(S(=O)(=O)N(CCCc2c(C)nc[nH]c2=O)c2ccccc2)cc1,/,1%,?,/,?,?,/,/
CCOC(=O)c1ccc(/C=C2/C=C(c3ccccc3)N(c3ccc(Cl)c(C(=O)O)c3)C2=O)cc1,?,-8%,?,?,0%,?,8%,3%
Cc1nn(CC(=O)N2CCCc3ccccc32)c(C)c1[N+](=O)[O-],/,12%,3%,/,8%,23%,0%,-2%
COC(=O)[C@@H]1CC[C@H](C)[C@@H](c2ccc(C)cc2)N1C(=O)c1ccc(/C=N/OCC[C@@H]2C=C[C@H](OC(C)=O)[C@@H](COC(C)=O)O2)cc1,-1.4%,/,4%,?,/,3%,20%,?
# Going on with the list.
SMILES,Cruzain inh Det,RE007 growth inh,MARV entry inh,Cruzain noTriton,StopGo reporter,Lassa entry inh,SARS PLpro yeast,NS1 function inh
CC(OC(=O)c1ccc(NS(=O)(=O)c2ccc3[nH]c(=O)[nH]c3c2)cc1)C(=O)Nc1cccc(Cl)c1Cl (stereo unspecified),/,-2%,-2%[46.1 µM],/,-12%,1%,1%,-30%
Cc1ccccc1Cn1nc(C)c(NC(=O)C(F)(F)F)c1C,0.1%,13%,21%,2%,-7%,14%,19%,-4%
Cc1sc2ncnc(NCc3cccnc3)c2c1C,/,-20%,-17%[46.1 µM],/,-16%,0%[46.1 µM],0%,/
CCOC(=O)N1CCN(C(=O)COc2ccc(Cl)c(C)c2)CC1,/,-5%,-1%[46.1 µM],/,28%,?,-3%,0%
Cc1nc2ccccc2c(=O)n1-c1ccc(NS(=O)(=O)c2ccccc2)cc1,/,?,6%,/,0%,16%,3%,/
Cn1cnnc1Sc1ccc(C(F)(F)F)cc1[N+](=O)[O-],/,33%,8%[46.1 µM],/,14%,6%,-1%,/
CCOC(=O)c1sc2ncn(/N=C/c3ccc(O)cc3)c(=O)c2c1C,/,3%,-7%[46.1 µM],/,?,-24%[46.1 µM],-1%,-13%
COC(=O)c1ccc(/C=N/NC(=O)c2ccccc2Cl)cc1,-3.6%,4%,6%,4%,17%,?,-18%,0%
CCS(=O)(=O)C(=C1Nc2ccccc2N1)S(=O)(=O)CC,-1.7%,0%,13%[46.1 µM],-4%,-25%,9%,6%,9%
Cn1c(=O)c2c(SCc3ccccn3)nc(CC(C)(C)C)nc2n(C)c1=O,-9.8%,-3%,/,8%,?,/,2%,-17%
O=S(=O)(c1ccccc1)N(Cc1ccccc1)c1ccccn1,-2.4%,8%,?,-2%,-15%,7%,-18%,-7%
CC(C)OC(=O)c1cccc(C(=O)OCc2ccco2)n1,6.6%,-2%,-6%,20%,0%,-4%,10%,2%
Cc1cc(NN)nc(NS(=O)(=O)c2ccccc2Cl)n1,/,18%,/,/,8%,/,0%,5%
COc1ccc(N=Nc2nc3ccc(Br)cc3n2C)cc1,-1.6%,-19%,?,3%,40%[activator],-13%,5%,-5%
Cc1onc(-c2ccccc2)c1C(=O)OCC(=O)N(CC(C)C)c1c(N)n(Cc2ccccc2)c(=O)[nH]c1=O,/,-4%,-12%,/,-24%,?,-22%,/
COc1ccc(/C=C2\SC(=N)N(c3nccs3)C2=O)cc1OC,-4.6%,-5%,?,4%,?,-24%[46.1 µM],-40%,-11%
COc1cccc2c(=O)n(CC(=O)N3CCCCC3)ccc12,-1.2%,0%,/,3%,-5%,/,0%,-4%
COc1ccccc1NS(=O)(=O)c1cc(NC(=O)c2ccc(Cl)nc2)ccc1N1CCCC1,/,1%,?,/,34%[activator],?,8%,/
CCc1ccc(Cc2cnc(NC(=O)C3=NCCN3)s2)cc1,/,-28%,-13%[46.1 µM],/,10%,21%,0%,/
Cc1ccccc1CSCC(=O)c1c(N)n(CC(C)C)c(=O)n(C)c1=O,3.9%,0%,?,-8%,?,-14%,2%,-2%
COc1ccc(Br)cc1CNC(=O)CCSCc1ccc(C)cc1,-0.1%,/,/,15%,-7%,22%[46.1 µM],/,/
COc1ccc2c(c1)O[C@@H](c1ccc3c(c1)OCO3)[C@H](OC(=O)Nc1cc(OC)c(OC)c(OC)c1)C2=O,-2.9%&0.4%,/,?,?,/,-13%,4%,?
Cc1ccc(C(=O)OCC(=O)N2C(C)CCCC2C)cc1S(=O)(=O)N1CCOCC1 (stereo unspecified),/,-16%,11%[46.1 µM],/,-16%,1%,3%,/
C/C(CC(=O)Nc1ccc2c(c1)OCCO2)=N\NC(=O)C(=O)Nc1ccccc1C,/,7%,/,/,12%,/,-1%,6%
Cc1cc(C)c2c(N)c(C(=O)Nc3ncc(C)s3)sc2n1,-5.7%,-22%,0.5µM*,15%,5µM*,0.2µM*,-32%,12%
# (next part)
SMILES,Cruzain inh Det,RE007 growth inh,MARV entry inh,Cruzain noTriton,StopGo reporter,Lassa entry inh,SARS PLpro yeast,NS1 function inh
CCOC(=O)c1ccc(NC(=O)CC2C(=O)N(c3ccccc3)C(=O)N2C2CCCCC2)cc1 (stereo unspecified),-5.6%,/,14%[46.1 µM],-12%,0%,1%[46.1 µM],/,/
COCCN(CC(=O)Nc1ccc(F)cc1)S(=O)(=O)c1ccc(S(=O)(=O)N2CCCC2)cc1,-3.0%,13%,1%,4%,-10%,-1%,-1%,2%
O=C(COc1cccnc1[N+](=O)[O-])Nc1ccccc1Sc1ccccc1,-9.0%,19%,-29%,6%,-15%,-4%,6%,-32%
COc1ccc(-n2c3c(cc(C(=O)NCc4ccco4)c2=O)C(=O)CC(C)(C)C3)cc1,/,-14%,14%[46.1 µM],/,-8%,0%,2%,4%
N#C/C(=C\C=C\c1ccccc1)C(=O)NCc1cccnc1,/,-1%,?,/,?,?,-3%,-8%
COCCNC(=O)c1ccc(C)c(NC(=O)C2=C(C)OCCS2)c1,/,13%,22%,/,14%,11%,1%,4%
Cc1ccccc1C(=O)NNC(=O)CCc1ccccc1,/,12%,-9%[46.1 µM],/,-2%,5%,0%,/
COc1ccc2nc(NC(=O)c3ccc(S(=O)(=O)N4CCC(C)CC4)cc3)sc2c1,2.3%,/,/,-13%,?,-4%[46.1 µM],/,/
CCCNC(=O)CCn1c(=S)oc2ccccc21,/,1%,/,/,-3%,/,-4%,-3%
O=C1CSC(=Nc2ccc(Cl)cc2)N1Cc1ccco1,/,-7%,3%[46.1 µM],/,-17%,-16%[46.1 µM],-7%,-34%
Cn1c(=O)c2c(O)c(C=NCc3ccccc3)c(=O)n(C)c2n(C)c1=O,/,-24%,4%[46.1 µM],/,-8%,-11%[46.1 µM],0%,1%
CCC(=O)NCCCCNC(=O)CC,-2.3%,9%,24%,-1%,11%,1%,6%,-8%[9.22 µM]
Cc1cc(=O)n2nc(N3CCCC(C(=O)NCc4cccc(Br)c4)C3)sc2n1 (stereo unspecified),/,-25%,-19%[46.1 µM],/,10%,-8%[46.1 µM],4%,5%
O=C(Nc1ccc(S(=O)(=O)N(Cc2ccccc2)c2ccccc2)cc1)c1ccc([N+](=O)[O-])cc1,-0.8%,/,-1%[46.1 µM],-9%,?,1%[46.1 µM],/,/
